Bioassay records from PubChem.
Cruzain inh noDet: blocks cruzain activity in detergent-free assay; AID 1476; Potency, µM, for the others: max response, negative = inhibition, most hits filed as inhibitors; actives 2.3% (n = 200,000); purified cruzain, Z-FR-AMC fluorescence, no detergent;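 further: plate controls were enzyme without inhibitor for no effect and buffer without enzyme for full effect; nearly all actives have a fitted effect of over 40% in size; top concentration of the series not given in the record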
Target sequence (P25779 123-467 limits assumed): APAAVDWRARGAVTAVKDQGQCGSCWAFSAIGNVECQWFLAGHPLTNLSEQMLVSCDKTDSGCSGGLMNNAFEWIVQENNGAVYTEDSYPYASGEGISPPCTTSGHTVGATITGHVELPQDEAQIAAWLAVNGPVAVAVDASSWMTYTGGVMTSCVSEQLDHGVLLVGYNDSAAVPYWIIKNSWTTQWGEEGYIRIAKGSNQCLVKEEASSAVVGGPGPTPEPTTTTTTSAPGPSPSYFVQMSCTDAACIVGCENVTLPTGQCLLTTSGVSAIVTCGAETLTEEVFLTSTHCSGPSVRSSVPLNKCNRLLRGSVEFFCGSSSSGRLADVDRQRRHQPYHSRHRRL
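Purified cruzain at 1.5 nM, pre-incubated 15 min with compound at room temperature in 100 mM sodium acetate pH 5.5, 5 mM DTT, 0.00005% Triton X-100. Reaction started with 2 uM Z-FR-AMC; AMC fluorescence increase over 60 s gives rate.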
NS1 inh: blocks influenza NS1 protein function; S. cerevisiae slowed by influenza A NS1, growth recovery by OD600; actives 0.4% (n = 270,000); Potency, µM (titrated, usually from 46.1 µM), for inactives: top-dose activity, positive = more growth; active means well fitted rising curve with a large enough effect; inconclusive means small, poorly fitted or top-dose-only effect; inactive means no such curve, though single readings can be large or run the other way; further: nearly all actives have a fitted effect of over 50% in size
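Growth recovery, yeast-based: influenza A NS1 expressed in S. cerevisiae causes slow growth, and suppressors are detected by OD600. The parent strain without NS1 is used as positive control.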
StopGo reporter: lowers the luciferase signal of an FMDV 2A StopGo reporter; human cells with a luciferase reporter of 2A StopGo recoding; control for the full effect not named in the record; Potency, µM (top dose mostly 57.9 µM), without a hit: at the highest dose signal change, negative = less light; actives 1.2% (n = 410,000); AID 1159524; active = well fitted falling curve with a large enough effect; inconclusive = small, poorly fitted or top-dose-only effect; inactive = no such curve, though single readings can be large or run the other way; tested in HEK293T cells; further: on the % scale 0 is the no-effect control and ±100 the full control effect; nearly all actives have a fitted effect of over 45% in size; luciferase light after 4 h
Cruzain inh Det: cruzain (T. cruzi) inhibition with detergent. purified cruzain, Z-FR-AMC fluorescence, 0.01% Triton. Potency, µM, inactives show max response, negative = inhibition, usual class: inhibitors. actives 0.43% (n = 200,000). AID 1478;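 further: plate controls were neutral wells for no effect and buffer without enzyme for full effect; nearly all actives have a fitted effect of over 40% in size; top concentration of the series not given in the record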
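Detergent-containing run (0.01% Triton X-100) in acetate buffer pH 5.5 with 5 mM DTT: enzyme at 1.5 nM final, 15 min compound preincubation at room temperature, then 2 uM Z-FR-AMC substrate. Activity taken as 60 s fluorescence increase at 360/450 nm.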
Marburg entry inh: inhibitors of Marburg virus binding or cell entry; AID 540276; actives 1.8% (n = 300,000); Potency, µM (highest dose often 37.8 µM), without a hit: top-dose activity change, negative = inhibition, actives largely listed as inhibitors; Marburg virus pseudotyped entry inhibition, cell reporter; control for the full effect not named in the record; about a third of the inactives were read at about 46 µM; active = well fitted inhibition curve with a large enough effect; inconclusive = small, poorly fitted or top-dose-only effect, or effect the other way; inactive = flat fitted curve, though single readings scatter; tested in HEK293 cells; about a fifth of its hits are not listed in these tables; further: on the % scale 0 is the no-effect control and ±100 the full control effect; luciferase read-out
LASV entry inh: blocks Lassa virus binding to or entry into cells; Lassa virus pseudotype entry inhibition, cell reporter; control for the full effect not named in the record; Potency, µM (doses to about 37.9 µM), for the others: at the highest dose activity change, negative = inhibition, actives largely listed as inhibitors; actives 1.2% (n = 300,000); AID 540256; active means well fitted inhibition curve with a large enough effect; inconclusive means small, poorly fitted or top-dose-only effect, or effect the other way; inactive means flat fitted curve, though single readings scatter; tested in HEK293 cells; further: on the % scale 0 is the no-effect control and ±100 the full control effect; nearly all actives have a fitted effect of over 50% in size; luciferase read-out
SARS PLpro yeast: blocks SARS-CoV papain-like protease in a yeast assay. actives 0.19% (n = 330,000). S. cerevisiae expressing SARS-CoV PLpro, growth rescue; control for the full effect not named in the record. Potency, µM (doses to about 32.9 µM), for inactives: at the top dose activity, positive = growth rescue; active means well fitted rising curve with a large enough effect; inconclusive means small, poorly fitted or top-dose-only effect; inactive means no such curve, though single readings can be large or run the other way; further: 0% is about no effect; nearly all actives have a fitted effect of over 55% in size; growth read by luminescence after 48 h
RE007 growth inh: less growth of the S. pombe RE007 Vpr strain; S. pombe RE007 Vpr strain, BacTiter-Glo ATP luminescence, 24 h; control for the full effect not named in the record; Potency, µM (top dose mostly 92.2 µM), for inactives: at the top dose activity change, negative = less growth; actives 0.21% (n = 360,000); active = well fitted falling curve with a large enough effect; inconclusive = small, poorly fitted or top-dose-only effect; inactive = no such curve, though single readings can be large or run the other way;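 further: on the % scale 0 is the no-effect control and ±100 the full control effect; nearly all actives have a fitted effect of over 50% in size; the assay follows cell death caused by Vpr and the record does not say whether a fall means rescue or toxicity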
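Fission yeast strain RE007, carrying one chromosomally integrated HIV-1 vpr copy, was seeded at OD 0.01 in PMG+AL medium with 23 nL pinned compound. After 24 h at 30 °C and 99% humidity, viability was read by BacTiter-Glo luminescence.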
* = called active by the depositor; ? = inconclusive; / = no result given; & = joins results of further samples; [ ] = dose if it differs, or a comment. Unless noted, the call rests on the fitted dose curve; in most records, active means well fitted curve in the direction sought with a large enough effect; inconclusive means small, poorly fitted or top-dose-only effect, or another doubt; inactive means no such curve, though single readings can be large; an effect the other way counts as inactive or inconclusive. Potency means the concentration at half of the fitted maximal effect. Not a hit list; 4.5% or so of the library scored in one or more.

cpd	mol	Cruzain inh noDet	NS1 inh	StopGo reporter	Cruzain inh Det	Marburg entry inh	LASV entry inh	SARS PLpro yeast	RE007 growth inh
1	O=C(CSc1nc2ccccc2[nH]1)Nc1ccccc1N1CCOCC1	2%	-1%	?	-1.4%	8.9µM*	-19%	-2%	8%
2	O=C(CN1CCCC1)NC(c1ccccc1)c1ccccc1	/	-13%	-1%	/	-18%	0%	2%	-1%
3	O=C(NCc1cccnc1)Nc1ccccc1F	10%	11%	38%[activator]	-2.0%	?	11%	21%	-11%
4	CCOc1ccc(N2CC(c3nc4ccccc4n3CCCOc3ccccc3OC)CC2=O)cc1 (configuration not stated)	21%	/	-15%	-7.6%	?	?	/	/
5	COc1cc2c(cc1OC)-c1cc(=Nc3c(C)cc(C)cc3C)n(C)c(=O)n1CC2	7%&-12%	-41%	/	-8.6%&-11%	?	?	/	/
6	O=C(CSc1nc(-c2ccccc2)nc2ccc(F)cc12)Nc1cccc(C(=O)O)c1	/	-22%	5%	/	/	/	-1%	6%
7	CCC(=O)Nc1ccc(C(=O)N/N=C/c2cccnc2)cc1	10%	6%	20%	-7.3%	12%	4%	4%	-21%
8	Cc1ccc(Sc2c([N+](=O)[O-])c(C)nn2C)cc1	/	-4%	?	/	-1%[46.1 µM]	7%	0%	19%
9	O=C1COc2ccc(C(=O)COC(=O)Cc3c(F)cccc3Cl)cc2N1	/	/	-28%	/	2%	13%	1%	-6%
10	Cc1ccccc1NS(=O)(=O)c1ccc(C)c(NS(C)(=O)=O)c1C	/	/	-12%	/	14%	-7%	0%	3%
11	O=C(Cc1c[nH]c2ccccc12)NCc1cccs1	2%	-4%	35%[activator]	-2.6%	9%	-16%	6%	/
12	CCOC(=O)C1=C(Cc2ccc(Cl)cc2)C(=O)c2ccccc2C1=O	16µM*	-111%	?	-7.3%	?	23µM*	-27%	35µM*
13	O=[N+]([O-])c1ccc(/C=N/Nc2ncc(Br)cn2)cc1	/	-2%	12%	/	-3%	4%	2%	-1%
14	C=CCSC1=C(C#N)C(c2cc(Br)c(O)c(OC)c2)CC(=O)N1 (configuration not stated)	-9%	-1%	-17%	-0.7%	-12%	?	-4%	0%
15	O=C(c1ccco1)N1CCN(S(=O)(=O)c2ccc3c(c2)OCCO3)CC1	-4%	-3%	?	-0.8%	-1%	-2%	2%	-17%
16	CCOc1cc(/C=N/N=C/c2ccc(O)c(OCC)c2)ccc1O	/	3%	-2%	/	/	/	-1%	6%
17	O=C(NCCN1Cc2ccccc2C1=O)c1cccs1	-1%	3%	25%	1.4%	?	?	2%	4%
18	O=[N+]([O-])c1ccccc1C=CC=NN=Cc1ccccc1O	/	/	50%[activator]	/	10%	-6%	/	1%
19	Cc1cc(C)c[n+](CC(=O)c2c(C)cc(C)c([N+](=O)[O-])c2C)c1	/	16%	-10%	/	/	/	-4%	-18%
20	COc1ccc(-n2nnnc2SCC(=O)Nc2ccccc2N2CCOCC2)cc1OC	/	6%	-20%	/	/	/	3%	0%
21	Cc1cc(C)nc(N2CCC(C(=O)NCc3ccccc3F)CC2)n1	/	3%	4%	/	4%[46.1 µM]	-2%[46.1 µM]	0%	-6%
22	Cn1nnc2cc(NC(=O)NCc3ccc4c(c3)OCO4)ccc21	-10%	-6%[9.22 µM]	/	-1.4%	?	-17%	12%	-3%
23	CCc1nc2nc(C)cc(Nc3cc(Cl)ccc3OC)n2n1	-11%	/	-11%	1.4%	-20%[46.1 µM]	-3%[46.1 µM]	/	/
24	CC1(C)C(=O)Nc2ccccc2N1C(=O)COC(=O)c1cc(S(=O)(=O)N2CCOCC2)ccc1F	/	/	-18%	/	-9%[46.1 µM]	17%	3%	9%
25	O=C(NCCc1ccccc1)c1cccc2c1C(=O)N(C1CCCCC1)C2	/	-1%	-15%	/	20%[46.1 µM]	-3%[46.1 µM]	-4%	-7%
26	O=S(=O)(NN1CCOCC1)c1ccc(Br)cc1	/	0%	-9%	/	-5%[46.1 µM]	0%[46.1 µM]	-3%	-2%
27	Cc1cccc(C)c1NC(=O)Cn1c(=O)c(N2CCCCC2)c(N)n(C)c1=O	/	/	-2%	/	-2%[46.1 µM]	0%[46.1 µM]	11µM*	-17%
28	O=C(CCN1C(=O)c2cccnc2C1=O)NC1CCCCCC1	0%	4%	0%	0.5%	9%	16%	3%	5%
29	COC(=O)C1(c2ccccc2)NC(c2ccc(O)cc2)C2C(=O)N(c3ccc4c(c3)OCO4)C(=O)C21 (configuration not stated)	/	-5%	-14%	/	/	/	0%	11%
30	O=C(CC1Sc2ncnn2C1=O)Nc1ccc(Cl)cc1 (configuration not stated)	/	/	-10%	/	0%[46.1 µM]	-2%	-4%	-10%
31	O=C(CN1CCN(c2ccccc2)CC1)Nc1ccccc1Cl	/	-34%	-20%	/	/	/	0%	-6%
32	Cc1ccc2nc(NC(=O)CSc3ncc(C(=O)Nc4ccc(F)cc4)c(=O)n3C)sc2c1	-3%	/	8%	-0.6%	/	8%[46.1 µM]	/	/
33	CC1=CCC2C(=O)N(CCc3c[nH]c4ccccc34)C(=O)C2C1 (configuration not stated)	-13%	-7%	53%[activator]	-4.6%	13%	20%	2%	4%
34	CC(C)C(NS(=O)(=O)c1ccc2c(c1)OCCO2)C(=O)NCCc1ccccn1 (configuration not stated)	-6%	-2%	10%	-4.5%	?	3%	0%	-6%
35	COC(=O)c1ccc2c(=O)n(CCCCCC(=O)O)c(=O)[nH]c2c1	4%	-16%	25µM*	-1.0%	-2%	-14%	13%	10%
36	O=C(COC(=O)c1cc(=O)c2ccccc2o1)Nc1ccc2ccccc2c1	9%	5%	15%	-8.1%	19%	23%	-12%	3%
37	COc1ccc(-c2[nH]c3ccccc3c2SCCNC(=O)c2ccc(S(=O)(=O)N(C)C)cc2)cc1	?	/	-2%	-1.0%	?	?	/	/
38	COc1ccc([N+](=O)[O-])cc1CSc1ccccn1	/	0%	18%	/	/	/	1%	-7%
39	CCOC(=O)c1cc2c(=O)[nH]c(C(Cl)(Cl)Cl)nc2o1	/	/	18%	/	?	16%[46.1 µM]	1%	-2%
40	CCc1ccc(CN2CCN(Cc3cc(Br)ccc3O)CC2)cc1	/	/	-11%	/	?	-5%[46.1 µM]	-5%	-5%
41	COc1ccc(C(=O)Nc2nc3cc4c(cc3s2)OCCO4)c(OC)c1	/	-2%	?	/	/	/	0%	3%
42	CCOC(=O)c1nc(N)sc1C(=O)OCC	-5%	0%	-21%	3.3%	-21%	-4%	26%	-2%
43	CC1(C(=O)OCC(=O)NCCNC(=O)COC(=O)C2(C)CC2(Cl)Cl)CC1(Cl)Cl (configuration not stated)	/	8%	-21%	/	-15%	14%	5%	2%
44	S=C(c1nc2ccccc2[nH]1)N1CCOCC1	-1%	0%	13%	-6.7%	-7%	-6%	2%	5%
45	C=CCN1CC2CC3(COc4cc(C)cc(C)c4)C=CC2(O3)C1=O (configuration not stated)	5%	3%	-11%	1.3%	1%	-14%	10%	13%
46	CCOc1ccc(OCC)c(NC(=O)CC(C)n2nc(C)cc2C)c1 (configuration not stated)	16%	/	-24%	-2.0%	/	-1%[46.1 µM]	/	/
47	O=C(O)C1CCC(C(=O)O)SS1 (configuration not stated)	/	/	7%	/	-1%[46.1 µM]	29%[46.1 µM]	/	15%
48	CC(/C=C/c1ccc2c(c1)OCO2)=N\NC(=O)C(O)c1ccccc1 (configuration not stated)	/	-7%	32%[activator]	/	-13%	1%	0%	4%
49	COc1cc(Cl)cc(/C=C/c2ccc3ccccc3n2)c1OC(C)=O	12%	-3%	-18%	-8.6%	?	?	6%	2%
50	Cc1ccccc1-c1noc(CSc2nc(-c3ccc(F)cc3)cc(=O)[nH]2)n1	-28%	/	-16%	1.2%	/	-2%[46.1 µM]	/	/
51	Cc1cc(C)c2c(CC(=O)NCCc3ccccc3)coc2c1	/	/	-1%	/	?	?	-7%	-1%
52	CS(=O)(=O)N1CCc2cc(-c3csc(NC(=O)Cc4ccccc4)n3)ccc21	?	10µM*	/	-1.3%	7.3µM*	?	10%	-4%
53	CCc1c(N)nc(N)nc1Nc1ccc(C)c(C)c1	/	/	?	/	?	2%[46.1 µM]	/	-6%
54	COC(=O)c1nn(C)c(=O)[nH]c1=O	/	/	16%	/	5%[46.1 µM]	10%[46.1 µM]	/	6%

Full records, looked up by structure:
Cc1cc(C)c2c(CC(=O)NCCc3ccccc3)coc2c1 as listed: Cruzain inh noDet: /; NS1 inh: /; StopGo reporter: -1%; Cruzain inh Det: /; Marburg entry inh: ?; LASV entry inh: ?; SARS PLpro yeast: -7%; RE007 growth inh: -1%
O=C(COC(=O)c1cc(=O)c2ccccc2o1)Nc1ccc2ccccc2c1 as listed: Cruzain inh noDet: 9%; NS1 inh: 5%; StopGo reporter: 15%; Cruzain inh Det: -8.1%; Marburg entry inh: 19%; LASV entry inh: 23%; SARS PLpro yeast: -12%; RE007 growth inh: 3%
CS(=O)(=O)N1CCc2cc(-c3csc(NC(=O)Cc4ccccc4)n3)ccc21 as listed: Cruzain inh noDet: ?; NS1 inh: 10µM*; StopGo reporter: /; Cruzain inh Det: -1.3%; Marburg entry inh: 7.3µM*; LASV entry inh: ?; SARS PLpro yeast: 10%; RE007 growth inh: -4%
